# Screening data from PubChem BioAssay.
# Rango complex inh: prevents formation of the Rango-importin beta complex. Q14974. Rango CFP/YFP FRET sensor + importin beta, 45 min. Potency, µM (series often up to 92.2 µM), without a hit: at the highest dose inhibition of complex formation. 340,000 compounds, 0.031% hits. AID 540263; active = rising FRET ratio curve, often small or poorly fitted; inconclusive = mostly compound fluorescence or quenching in the first reads; inactive = flat curves in all reads;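 further: potency means the concentration at half of the fitted maximal effect; 0% = DMSO wells and 100% = buffer wells lacking importin beta; nearly all actives have a fitted effect of over 15% in size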
# Target sequence (Q14974 whole entry, looked up): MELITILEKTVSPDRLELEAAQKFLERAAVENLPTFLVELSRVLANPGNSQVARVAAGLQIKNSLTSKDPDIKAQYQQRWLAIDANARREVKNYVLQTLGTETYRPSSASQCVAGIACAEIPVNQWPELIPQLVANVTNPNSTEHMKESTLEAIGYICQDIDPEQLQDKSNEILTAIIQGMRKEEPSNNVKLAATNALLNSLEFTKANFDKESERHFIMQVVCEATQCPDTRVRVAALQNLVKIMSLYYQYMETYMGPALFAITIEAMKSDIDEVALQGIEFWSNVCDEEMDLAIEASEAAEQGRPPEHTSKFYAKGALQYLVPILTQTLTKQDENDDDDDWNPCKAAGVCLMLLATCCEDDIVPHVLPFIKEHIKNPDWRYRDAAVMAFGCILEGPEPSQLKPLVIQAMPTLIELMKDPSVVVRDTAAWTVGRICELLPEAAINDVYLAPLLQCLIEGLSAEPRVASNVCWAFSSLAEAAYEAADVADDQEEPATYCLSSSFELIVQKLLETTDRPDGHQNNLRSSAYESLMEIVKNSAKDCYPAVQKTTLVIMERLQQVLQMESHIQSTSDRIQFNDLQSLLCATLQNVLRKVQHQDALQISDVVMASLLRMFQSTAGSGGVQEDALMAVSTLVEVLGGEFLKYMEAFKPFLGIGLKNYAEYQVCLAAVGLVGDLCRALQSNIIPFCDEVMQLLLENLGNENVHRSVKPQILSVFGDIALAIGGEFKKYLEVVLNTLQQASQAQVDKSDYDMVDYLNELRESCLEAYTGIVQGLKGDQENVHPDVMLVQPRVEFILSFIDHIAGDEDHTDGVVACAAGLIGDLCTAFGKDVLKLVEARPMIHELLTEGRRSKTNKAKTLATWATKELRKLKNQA
#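 FRET biosensor (snurportin 1 IBB flanked by EYFP and cerulean), 50 nM, with compound 5 min, then 0.125 microM importin beta in PBS, 1 mM DTT, 0.02% Tween-20, 0.1% BSA. CFP/YFP ratio read after 45 min at room temperature; pre-read flags interference.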
# miR-21 FLuc: miR-21 reporter, rising signal; HeLa miR-21 FLuc reporter, luciferase, 48 h; Potency, µM (series often up to 38.3 µM), without a hit: at the highest dose reporter change, positive = more light; 340,000 tested, under 10 active; active = well fitted rising curve with a large enough effect; inconclusive = small, poorly fitted or top-dose-only effect; inactive = no such curve, though single readings can be large or run the other way;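 further: % of control where 0% means no effect; miR-21 action dims this reporter so a rising signal means less miR-21 action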
#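 HeLa miR-21-FLuc reporter line, endogenous miR-21; 2000 cells/well in DMEM/10% FBS; compound titration up to ~40uM final, 48 h, 37 degree Celsius; luciferase detection reagent, 15 min lysis, CCD luminescence.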
# Rango release inh: inhibitors of RanGTP-induced Rango-importin beta complex dissociation. O95149+P62826. Biochemical FRET Rango-importin beta, RanGTP-induced dissociation. Potency, µM (doses to about 46.1 µM), for the others: at the top dose activity change, negative = inhibition. 340,000 compounds, 0.071% hits. AID 540253; active means falling FRET ratio curve, often poorly fitted, with flat reads before Ran was added; inconclusive means other falling curves, or compound fluorescence or quenching; inactive means flat or rising ratio curve;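 further: potency means the concentration at half of the fitted maximal effect; % of control where 0% means no effect; nearly all actives have a fitted effect of over 45% in size; -100% = wells without RanGTP and RCC1; the record marks most hits as doubtful in a second field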
#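 Rango (0.1 uM)–importin beta (0.25 uM) complex; RanGTP-RCC1 trigger; 45 min RT; CFP/YFP FRET read.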
# GLA inh pH 4.5: alpha-galactosidase A (human) inhibition, pH 4.5; P06280; purified enzyme, 4-MU-alpha-Gal fluorescence, pH 4.5; activity change, negative = inhibition, % at 105 µM; 230,000 tested, under 10 active; AID 1467; inconclusive = small, poorly fitted or top-dose-only inhibition, or a rising curve; inactive = flat fitted curve, though single readings scatter; no compound was filed as active;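 further: 0% = full activity with enzyme and -100% = basal without enzyme; dose as in the result columns while the protocol names 77 µM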
# The depositor's hits bear a star; u = inconclusive; x = no result given; & = joins results of further samples; [ ] = dose if it differs, or a comment. Not all compounds are listed. The share of hits here may be higher or lower than overall.
SMILES,Rango complex inh,miR-21 FLuc,Rango release inh,GLA inh pH 4.5
O=C(COc1ccc(F)cc1Br)Nc1ccccc1N1CCOCC1,-1.9%,x,12%,x
Cn1c(=O)[nH]c(=O)c2c1nc(N1CCN(CCO)CC1)n2Cc1ccccc1Cl,3.4%,-19%,-2%,x
CC(=O)Nc1cccc(OCC(=O)NC(C)C(C)C)c1 (configuration not stated),-2.5%,-3%,1%,0
Cc1ccc(C)c(C(=O)NCCN(C)C)c1,-0.7%,-1%,-1%,-4
CC1=CC(C)C2(CO)COC(c3ccc(O)cc3)C1C2C (configuration not stated),3.1%,0%,-9%,-7
CC(=O)N1CCC(CCCC2CCN(C(C)=O)CC2)CC1,2.1%,x,20%,x
Cc1ccc(Cn2c(=N)c(C(=O)NC3CCCCC3)cc3c(=O)n4ccccc4nc32)cc1,u,-7%,u,x
N#CCCN(C(=O)COC(=O)c1n[nH]c2ccccc12)c1ccccc1,-1.6%,x,5%,x
Cc1cc2nnc(SC3CCCCN(C(=O)c4ccc(F)cc4)C3=O)n2c2ccccc12 (configuration not stated),3.7%,-9%,-2%,-17
CS(=O)(=O)N(CC(=O)NCC1CCCO1)c1cc(Cl)c(Cl)cc1Cl (configuration not stated),-0.6%,-2%,-8%,-6
Cc1cc(O)ccc1N/C=C(\C#N)c1nc2ccccc2o1,u,-2%,u,0
Cc1ccc(NC(=O)CCNS(=O)(=O)c2cccc3nonc23)cc1Cl,-3.2%,-2%&6%,21%,4[21.1 µM]
Cc1cc(C)nc(SCC(=O)OCC(=O)Nc2nc3ccccc3s2)n1,u,-22%,-12%,5
Nc1ccc(Cl)c(NC(=O)c2cccs2)c1,-2.9%,-21%,13%,-5
Fc1ccccc1CSc1ncnc2sc3c(c12)CCCC3,-0.5%,-6%,-12%,-15
COc1ccc(N2CC(NC(=O)N3CCN(c4ccccc4)CC3)CC2=O)cc1 (configuration not stated),0.3%,6%,2%,9
CNC(=O)c1c(I)c(C(=O)NCC(=O)Nc2c(I)c(C(=O)O)c(I)c(C(=O)NCCO)c2I)c(I)c(N(C)C(C)=O)c1I,8.4%,x,-10%,0
Cc1cc(=O)n2[nH]c(-c3ccccc3Cl)cc2n1,-1.8%,-36%,2%,x
O=C(COC(=O)[C@@H]1CC(O)CN1S(=O)(=O)c1ccc2c(c1)OCCO2)Nc1ccccc1F (some centres not stated),-0.8%,13%,-11%,-4
CC(C)c1nc2sc3c(=O)[nH]cnc3c2c2c1CCC2,1.2%,-5%,-29%,-2
CCOC(=O)/C=C1\CN(Cc2cc(OC)c(OC)c(OC)c2)S(=O)(=O)c2ccc(C(F)(F)F)cc21,-5.5%,14%,9%,x
Nn1c(SCc2cccc(Br)c2)nnc1-c1cccnc1,-0.9%,0%,0%,-28
O=C1C=C(c2ccc(-c3ccccc3)cc2)C[C@@H](c2ccc(F)cc2)C1,2.5%,x,-1%,x
O=C(Cn1c(=O)oc2ccccc21)NC(=O)NCc1ccco1,1.5%,1%,-3%,-11
O=C(CSCc1ccc([N+](=O)[O-])cc1)NC1CC1,-1.0%,-3%,0%,4

# An excerpt from above in order of heavy-atom count, descending:
SMILES,Rango complex inh,miR-21 FLuc,Rango release inh,GLA inh pH 4.5
Cc1ccc(Cn2c(=N)c(C(=O)NC3CCCCC3)cc3c(=O)n4ccccc4nc32)cc1,u,-7%,u,x
Cn1c(=O)[nH]c(=O)c2c1nc(N1CCN(CCO)CC1)n2Cc1ccccc1Cl,3.4%,-19%,-2%,x
N#CCCN(C(=O)COC(=O)c1n[nH]c2ccccc12)c1ccccc1,-1.6%,x,5%,x
CS(=O)(=O)N(CC(=O)NCC1CCCO1)c1cc(Cl)c(Cl)cc1Cl (configuration not stated),-0.6%,-2%,-8%,-6
O=C(Cn1c(=O)oc2ccccc21)NC(=O)NCc1ccco1,1.5%,1%,-3%,-11
Cc1ccc(C)c(C(=O)NCCN(C)C)c1,-0.7%,-1%,-1%,-4

# (more compounds)
SMILES,Rango complex inh,miR-21 FLuc,Rango release inh,GLA inh pH 4.5
CCCOc1ncnc2c1[nH]c1ccc(C)cc12,0.1%,-18%,3%,3
O=C(Nc1cccc(O)c1)c1ccc(NC(=O)c2cccs2)cc1,5.1%,-29%,2%,x
CCOc1ccc(-c2nnc(N)s2)cc1,-0.2%,-49%,24%,-3
CC(C)(C)c1ccc(-n2ncc3c2CCCC3NC(=O)c2ccncc2)cc1 (configuration not stated),1.8%,x,1%,x
CCOC1=NN(c2ncc(C(F)(F)F)cc2Cl)C(=O)/C1=C/N(C)C,-1.0%,0%,-6%,3
CC(=O)C1N=NCC1c1ccccc1 (configuration not stated),4.5%,x,-13%,x
O=C(CSCc1ccccc1)Nc1cccc(C(=O)Nc2ccccc2C(=O)O)c1,3.8%,-2%,6%,-4
CCOC(=O)c1c(C)nsc1NCc1ccccc1,-0.2%,x,-21%,x
Nc1cc(-c2ccccc2)nn1Cc1ccc(Cl)cc1,-3.3%,2%,-1%,-6
Cn1cc(-c2cccc(Cl)c2)cc(C#N)c1=O,-0.5%,-3%,3%,5
O=S(=O)(c1ccc(N2CCCCCC2)nc1)N1CCCC1,0.4%,-7%,-17%,-9
Cc1ccc(N=C2NC(=O)c3cccc([N+](=O)[O-])c32)cc1,0.6%,-42%,-1%,-8
CCOC(=O)C1=C(CS(=O)(=O)c2ccc(Cl)cc2)NC(=O)NC1c1ccc(O)c(OC)c1 (configuration not stated),1.2%,-1%,-10%,x
C[C@H](CO)N1C[C@H](C)[C@@H](CN(C)S(C)(=O)=O)Oc2c(NC(=O)Nc3ccccc3)cccc2C1=O,-0.6%,x,-7%,x
COc1ccc(/C=N/Nc2cc(C)nc3ccccc23)cc1,u,u,u,x
Cc1ccsc1C(=O)OC1CCOC1=O (configuration not stated),4.8%,1%,-10%,4
CC(=O)NC(CC(=O)N(C)Cc1c(F)cccc1Cl)c1ccccc1 (configuration not stated),2.7%,-1%,15%,-1
CCC(=O)NC(c1cccs1)c1cc(Cl)c2ccccc2c1O (configuration not stated),0.9%,x,-10%,x
CC[C@@H]1C=C(C(=O)O)[C@H](c2ccc(C#N)cc2)N1S(=O)(=O)c1ccc(C)cc1,-2.0%,x,19%,x
CCOc1ccccc1C(=O)NC1CC2CCCC(C1)N2Cc1nnnn1Cc1ccco1 (configuration not stated),-3.3%,-2%,6%,7
O=C(c1ccc(Br)c(S(=O)(=O)N2CCOCC2)c1)N1CCN(C/C=C/c2ccccc2)CC1,0.5%,x,22%,x
COC(=O)C(CC(C)C)NC(=O)CSc1nc(-c2ccccc2)c(C#N)c(=O)[nH]1 (configuration not stated),-0.3%,0%,-1%,-4
COc1ccccc1C(=O)N1CCN(CCc2ccccc2)CC1,-5.4%,-8%,-14%,-9
COc1ccc(C(=O)N2CC3(CC(c4cccc(NC(=O)CC(c5ccccc5)c5ccccc5)c4)=NO3)C[C@H]2C(N)=O)cc1 (some centres not stated),-1.5%,16%,-19%,-10
CC1CCN(S(=O)(=O)c2ccc(C(=O)OC(C)C(=O)NC3CCCCC3C)cc2)CC1 (configuration not stated),-1.6%,0%,-4%,x

# The listing continues.
SMILES,Rango complex inh,miR-21 FLuc,Rango release inh,GLA inh pH 4.5
O=C1CC(C(F)(F)F)=NN1,0.5%,-2%,u,-4
CC(C)C(OC(=O)C1CCCO1)C(=O)NC1CCCC1 (configuration not stated),0.3%,-4%,0%,3
O=C(NCCCn1ccnc1)C(=O)NCc1ccccc1,-0.1%,-5%,17%,-22
Cc1cccn2c(=O)c3cc(C(=O)NCc4ccco4)c(=N)n(C4CCCC4)c3nc12,u,-1%,u,x
COC(=O)C1=C(C)N(CCCC(=O)O)C(=O)NC1c1ccccc1Cl (configuration not stated),-1.2%,x,0%,x
CCc1cc2c(NC(Cc3c[nH]c4ccccc34)C(=O)O)nc(C)nc2s1 (configuration not stated),-0.8%,1%,-2%,4
CCc1[nH]nc2c1C(C1C=CCCC1)C(C#N)=C(N)O2 (configuration not stated),-0.6%,u,-6%,-6
Cc1ccc(S(=O)(=O)N2CCCC(c3nnc4n3-c3ccccc3SC4)C2)cc1 (configuration not stated),-1.7%,-7%,-10%,4
COc1ccc2c(c1OC)c(=O)n1c3ccc(OC(C)C(=O)NCCN4CCOCC4)cc3c3ccnc2c31 (configuration not stated),0.5%,8%,-12%,x
O=C(c1cncc(Br)c1)N1CCN(c2ccc([N+](=O)[O-])cc2)CC1,0.6%,16%,-3%,-5
COC(=O)C(C)SC1=N/C(=C/c2ccc(-n3cncn3)cc2)C(=O)N1 (configuration not stated),u,3%,u,-7
CC(=O)Nc1ccc(S(=O)(=O)Nc2ccc(N3CCOCC3)c(F)c2)cc1,-0.7%,-1%,8%,6
Cc1ccc(N(C(=O)c2snc(C(N)=O)c2N)C(C(=O)NCCC(C)C)c2ccco2)cc1 (configuration not stated),-0.1%,23%,-5%,-5
O=S(=O)(c1cccc(-c2csc(-c3ccccc3)n2)c1)N1CCOCC1,6.0%,-21%,-1%,-1
CNC(=O)COC(=O)COc1ccc2c(C)cc(=O)oc2c1,3.0%,-1%,0%,9
COC(=O)c1ccccc1NC(=O)CN(c1ccc(C)cc1)S(C)(=O)=O,-1.2%,2%,-9%,x
COc1ccc(S(=O)(=O)Nc2cc(C(=O)NCCCN3CCOCC3)ccc2N2CCOCC2)cc1,-1.3%,-2%,14%,4
CCn1c(SCC(=O)Nc2nnc(C)s2)nnc1C(C)NC(=O)c1ccccc1F (configuration not stated),1.1%,0%,-4%,x
COc1ccc(S(=O)(=O)NC(Cc2cnc[nH]2)C(=O)O)cc1 (configuration not stated),1.9%,-6%,-5%,2
CC(=O)Nc1ccc(NC(=O)C(=O)c2cn(CC(=O)N3CCCC3)c3ccccc23)cc1,1.2%,2%,-15%,x
CC(=O)c1ccc(OC(=O)Oc2ccc(C(C)=O)cc2)cc1,-0.1%,x,-13%,x
CCN(C(=O)CN1C(=O)NC(c2ccccc2)(c2ccc(C)c(C)c2)C1=O)C1CCS(=O)(=O)C1 (configuration not stated),-1.0%,x,-7%,x
Cc1ccc(CNc2oc(COc3ccccc3Cl)nc2C#N)cc1,u,-8%,u,0
Cc1nnsc1C(=O)NNS(=O)(=O)c1cc(C(F)(F)F)cc(C(F)(F)F)c1,3.5%,0%,12%,-6
Cc1nc(C)c(CCNC(=O)c2ccccc2Br)s1,u,0%,u,5

# Additional entries.
SMILES,Rango complex inh,miR-21 FLuc,Rango release inh,GLA inh pH 4.5
O=C(Cn1cc([N+](=O)[O-])ccc1=O)N1CCc2ccccc21,-0.4%,x,-1%,x
COc1ccc(NC(C)=O)cc1NC(=O)CSc1nnc(-c2ccc(F)cc2)n1N,0.9%,-9%,7%,-13
Cc1ccc(C(=O)Nc2nc(C)c(C)s2)o1,0.2%,-20%,10%,0
COC(=O)C(Cc1ccccc1)NC(=O)COc1ccc(C(C)(C)C)cc1 (configuration not stated),0.4%,13%,34%,-14
Cc1ccc(C)c(S(=O)(=O)N2CCN(CC(=O)NC(=O)NCc3ccco3)CC2)c1,0.8%,0%,-5%,5
CCOC(=O)c1c(NC2=NS(=O)(=O)c3ccccc32)sc2c1CCCCC2,u,-3%,u,-12
CCN(Cc1ccc(NC(C)=O)cc1)CC1CCCN(CCc2cccc(OC)c2)C1 (configuration not stated),-4.2%,4%,-7%,x
COC(=O)c1cc2c(N)c(C(=O)c3ccc(Cl)cc3)sc2nc1C(OC)OC,u,-4%,u,-11
O=C1c2ccccc2NC(c2ccccc2O)N1NS(=O)(=O)c1ccccc1 (configuration not stated),-1.1%,-4%,13%,-1[21.1 µM]
CC(C)(C)[C@@H]1C=C(C(=O)O)O[C@H](OCc2ccc(CO)cc2)C1,-3.0%,-1%,-1%,0
COc1ccc(N2CCN(c3cnc4ccccc4n3)CC2)cc1,3.9%,-52%,-5%,1
COC(=O)c1ccccc1NS(=O)(=O)c1ccc2c(c1)oc(=O)n2C,-0.2%,13%,19%,x
COc1ccc(-c2cc(C(=O)Nc3cccc(Cl)c3)no2)cc1,-1.3%,-53%,4%,x
O=C(NCCc1c[nH]c2ccccc12)c1cnc2sccn2c1=O,-7.8%,-62%,-17%,4
COc1ccc(C2c3c(-c4ccccc4O)n[nH]c3C(=O)N2CCc2ccc(OC)c(OC)c2)cc1 (configuration not stated),0.9%,13%,7%,u
